Sfp PPTase inh: inhibitors of Bacillus subtilis Sfp phosphopantetheinyl transferase; Biochemical Sfp PPTase activity, qHTS; Potency, µM, for the others: max response, negative = inhibition, most hits filed as inhibitors; 310,000 compounds, 3.5% hits; active = well fitted inhibition curve with a large enough effect; inconclusive = small, poorly fitted or top-dose-only effect, or another doubt; inactive = no such curve, though single readings can be large or run the other way;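 note: the enzyme is Sfp with the accession as filed and its product quenches rhodamine fluorescence; potency is the fitted concentration of half-maximal effect; 0% = enzyme reaction without inhibitor and -100% = no enzyme wells; top concentration of the series not given in the record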
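With Hepes-Na pH 7.6 buffer containing 10 mM MgCl2, Sfp (15 nM) modified BHQ-2-YbbR (12.5 uM) using rhodamine-CoA (5 uM). Two reads 30 minutes apart at 525/598 nm yielded each well's rate.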
Six1-Eya2 blk: blocks human Six1 binding to Eya2; Q15475+O00167; AlphaScreen GST-Six1/His-Eya2 binding, biochemical; active compounds read low; control for the full effect not named in the record; activity change, % (no concentration beside the values); 360,000 compounds, 0.56% hits; in the data active = activity change below about -65%; inconclusive = about -30% to -65%; inactive = above about -30%; note: % is set by controls: 0 for no effect and ±100 for the full control effect
Target sequence (O00167 whole entry, looked up): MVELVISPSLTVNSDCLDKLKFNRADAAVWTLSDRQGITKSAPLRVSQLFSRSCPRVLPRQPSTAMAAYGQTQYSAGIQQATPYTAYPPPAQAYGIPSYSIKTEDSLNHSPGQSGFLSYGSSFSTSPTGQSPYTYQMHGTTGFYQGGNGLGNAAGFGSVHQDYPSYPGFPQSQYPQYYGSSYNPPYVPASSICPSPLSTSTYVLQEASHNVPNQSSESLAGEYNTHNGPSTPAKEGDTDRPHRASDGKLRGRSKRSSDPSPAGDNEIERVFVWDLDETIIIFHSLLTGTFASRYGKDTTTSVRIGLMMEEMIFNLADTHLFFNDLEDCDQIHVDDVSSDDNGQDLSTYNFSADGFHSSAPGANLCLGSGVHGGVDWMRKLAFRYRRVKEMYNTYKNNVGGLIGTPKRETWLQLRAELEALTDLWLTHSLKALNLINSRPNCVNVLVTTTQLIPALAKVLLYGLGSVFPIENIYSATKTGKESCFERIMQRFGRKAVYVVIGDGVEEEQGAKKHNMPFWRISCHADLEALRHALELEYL
Target sequence (Q15475 whole entry, looked up): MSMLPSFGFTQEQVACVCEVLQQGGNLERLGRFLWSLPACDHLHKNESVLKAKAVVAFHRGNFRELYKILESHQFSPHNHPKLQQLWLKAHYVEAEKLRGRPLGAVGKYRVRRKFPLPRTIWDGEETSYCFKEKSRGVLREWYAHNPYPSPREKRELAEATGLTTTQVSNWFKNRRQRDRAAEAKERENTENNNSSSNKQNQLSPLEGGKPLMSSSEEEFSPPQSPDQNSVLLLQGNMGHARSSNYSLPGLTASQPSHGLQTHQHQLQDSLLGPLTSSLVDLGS
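GST-Six1 + His-Eya2 (5X stock: 250/500 nM); Tris pH 8.0, 300 mM NaCl, 0.05% BSA, 0.02% Tween 20; GSH donor/Ni acceptor beads; 1 h 37 °C dark; AlphaScreen readout.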
D2 PAM: potentiates the human D2 dopamine receptor allosterically. AID 624464. 360,000 compounds, 0.23% hits. DiscoveRx D2 beta-arrestin cells, luminescence, 90 min; 100% = 57 uM dopamine signal. potentiation, % (test concentration not listed); active = potentiation of 50% or more; inconclusive = 30% to 50%; inactive = 30% or less;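 note: compound concentration not given in the record; tested on top of an EC20 dose of dopamine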
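PathHunter D2 cells, attached overnight at 37 deg C, received compound in DMSO plus dopamine at EC20 (50 nM final) for 90 min at 37 deg C. Beta-arrestin recruitment was read as luminescence after 1 h with detection reagent at ambient temperature.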
TRPV1 potentiator: human TRPV1 potentiation; Q8NER1; TRPV1-expressing cells, Fluo-8 calcium influx, capsaicin EC20 potentiation; host cell line not named in the record; control for the full effect not named in the record; potentiation, % at 8.33 µM; 320,000 compounds, 0.02% hits; active means potentiation above 80%; inconclusive means 30% to 80%; inactive means below 30%; note: 0% is about no effect
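Fluo-8 calcium influx in TRPV1-expressing cells, kinetic read (ex 480/em 520 nm). Compound added and read 3 min for agonist activity, followed by capsaicin at EC20 final and 2 min further read for enhancement.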
CtBP-E1A inh: blocks the CtBP interaction with E1A | 340,000 compounds, 0.49% hits | AID 651724 | activity change, % (no concentration beside the values) | AlphaScreen GST-E1A/His-CtBP binding, 1536-well; active compounds read low; control for the full effect not named in the record; in the data active means activity change below about -65%; inconclusive means about -30% to -65%; inactive means above about -30%; note: % is set by controls: 0 for no effect and ±100 for the full control effect
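In 5 uL wells, 23 nL compound meets equimolar GST-E1A and His-CtBP (5X stock 125 nM each) for 2 h, 37 °C. Beads (5X, 50 ug/mL) then 1 h, 37 °C, dark.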
D2 agonist: activates the human D2 dopamine receptor. P14416. activation, % (no concentration beside the values). DiscoveRx PathHunter D2 beta-arrestin, luminescence, 90 min; 100% = 57 uM dopamine signal. 360,000 compounds, 0.084% hits; in the data active = activation above about 40%; inconclusive = about 15% to 40%; inactive = below about 15%; note: compound concentration not given in the record; the text of the record calls up to 30% inactive
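DiscoveRx PathHunter D2 beta-arrestin cells (2,100/well) attached overnight, then compound-stimulated 90 min at 37 C in HBSS/10 mM HEPES/0.1% Tween-20 buffer; beta-galactosidase complementation read by luminescence after 1 h at ambient temperature. Dopamine 57 uM final (EC100) as control.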
PINK1 modulator: modulators of PINK1 expression. AID 624263. Potency, µM (highest dose often 76.6 µM), without a hit: top-dose activation (PINK1 increase), hits mostly activators. PINK1 immunofluorescence, high-content cytometry, 24 h. 410,000 compounds, 0.2% hits; active = well fitted activation curve with a large enough effect; inconclusive = small, poorly fitted or top-dose-only effect; inactive = flat fitted curve, though single readings scatter; cell line not stated here;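 note: potency is the fitted concentration of half-maximal effect; % of control where 0% means no effect; nearly all actives have a fitted effect of over 65% in size; a mitochondrial uncoupler was the plate control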
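Decision-based qHTS: stable cells, 24 h exposure to five compound concentrations, CCCP as control. Fixed cells stained for PINK1 plus nuclear, mitochondrial and cell markers, cytometer read.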
* marks the source's active call; other numbers are inactive results; ? = inconclusive; . = not tested or not shown; [ ] = remark or other dose.

SMILES	Sfp PPTase inh	Six1-Eya2 blk	D2 PAM	TRPV1 potentiator	CtBP-E1A inh	D2 agonist	PINK1 modulator
CCCC(=O)Nc1sc(C)c(-c2ccc(C(C)CC)cc2)c1C#N (stereo not given)	11.6%	9.2	8.2	.	6.1	2.0	14.6%[38.3 µM]
CCc1nc2ccccc2c(=O)n1NC(=O)c1c(O)c2ccccc2[nH]c1=O	-7.4%	-17.3	-9.1	-20.3	1.4	-2.2	4.7%
O=C(NCCc1ccccn1)c1ccc(S(=O)(=O)N2CCCCCC2)cc1	11.4%	7.6	-4.6	-23.6	4.0	-1.9	0.1%
Cn1nnnc1SCC(=O)N1CCCc2ccccc21	14.4%	-1.1	-3.1	1.0	0.1	-3.2	1.8%
CN(C)c1cccc2c(C=C(C#N)C#N)ccc(N(C)C)c12	-4.4%	-15.4	6.4	-2.3	1.7	1.8	1.6%
O=C1C=C(O)CC(c2ccco2)C1 (stereo not given)	14.0%	-22.1	3.5	0.8	-12.9	2.1	-0.4%
COc1ccccc1CCNS(=O)(=O)CCNC(=O)c1ccccc1	.	3.1	-17.2	0.5	-1.3	-2.0	4.1%
Cc1ccc(C(=O)O)c(C(=O)Nc2nc(C)cs2)c1	8.7%	2.6	-4.3	-6.2	0.1	-1.4	-1.1%[38.3 µM]
Cc1ccccc1-c1nnc(-c2cccc3ccccc23)o1	.	-3.4	-8.8	.	5.0	-4.1	5.4%
C=CCOc1ccc(C2NC(=S)NC(c3ccccc3)=C2C(C)=O)cc1OC (stereo not given)	5.6%	2.4	-6.8	9.1	-2.2	0.1	3.1%
CCC1CCCCN1CCCNC(=O)C1CCN(c2ncnc3c2nc2n3CCCCC2)CC1 (stereo not given)	18.5%	0.9	-10.4	-2.6	-9.7	-2.4	2.3%
O=C(Oc1ccc2ccccc2c1)C1CCC1	6.6%	12.7	2.6	-6.3	17.5	8.4	0.4%
O=S(=O)(Nc1ccc2c(c1)OCCO2)c1cccs1	11.6%	0.8	-19.7	8.1	5.3	-2.4	.
N#C/C=C(/N)N1CCN(c2ccc(Cl)c(Cl)c2)CC1	-13.9%	-17.0	-33.6	9.8	-4.0	2.5	1.9%
CCN(C(=O)CSc1n[nH]c(-c2cc(Cl)ccc2OC)n1)C1CCS(=O)(=O)C1 (stereo not given)	.	-9.1	-23.3	0.0	-4.6	-4.2	1.8%
COc1ccc(NC(=O)Nc2c(O)ccc3ccccc23)cc1	.	-2.1	-9.7	.	.	2.4	-0.1%
O=C1CN(S(=O)(=O)c2cccc(C(=O)O)c2)c2ccccc2N1	-2.5%	-20.2	-0.3	1.7	-0.4	-1.0	-1.3%
Clc1ccc(C2CC(c3cccs3)n3ncnc3N2)cc1 (stereo not given)	9.7%	9.2	-11.6	-8.2	1.5	-1.4	0.0%
COC(=O)[C@]1(Sc2ccc(OC)cc2)CC(=O)N[C@@H]1c1ccccc1	.	-6.9	.	.	-5.5	.	1.3%
CCOC(=O)C1=C(CC)Nc2ccccc2N/C1=N\S(=O)(=O)c1ccccc1OC	.	6.0	-2.4	3.6	-8.4	-4.5	-1.5%
CC(NCC(=O)NC(=O)NCCC1=CCCCC1)c1ccc(S(N)(=O)=O)cc1 (stereo not given)	.	-0.6	-2.8	.	-2.2	-0.3	0.1%
CCOc1ccc(-c2n[nH]c(C)c2Oc2ccccc2OC)c(O)c1	4.8%	-8.8	-2.1	9.5	-2.3	2.6	1.8%[38.3 µM]
CC(=O)C1(C)CCC2C3C=C(C)C4=CC(=O)CCC4(C)C3CCC21C (stereo not given)	.	0.8	-7.3	.	0.0	4.7	-0.6%
CC1(C#N)c2ccccc2C(Br)=CN1C(=O)c1ccccc1 (stereo not given)	.	-0.3	-61.2	5.3	0.0	2.0	4.5%
CCOc1ccc(NC(=O)CN2CCN(C3c4ccccc4-c4ccccc43)CC2)cc1	17.7%	-5.6	-4.3	5.8	-4.3	0.3	-2.4%[38.3 µM]
More compounds
SMILES	Sfp PPTase inh	Six1-Eya2 blk	D2 PAM	TRPV1 potentiator	CtBP-E1A inh	D2 agonist	PINK1 modulator
CC(=O)c1ccc(NC(=O)C2CCN(S(=O)(=O)c3cccc4nonc34)CC2)cc1	15.6%	-9.8	-0.4	22.3	7.7	1.5	2.3%
C/C=C\C=C/C(=O)Nc1cccc(C2=NOC3(C2)C[C@H](C(N)=O)N(C(=O)c2ccc(OC)cc2)C3)c1 (stereo not given in full)	12.6µM*	-11.1	-4.1	-34.1	3.6	-0.6	0.4%
CCCCSc1nnc(-c2ccccc2N)c(=O)[nH]1	16.6%	-3.7	-9.8	12.7	8.9	-1.7	-0.1%[38.3 µM]
COc1ccc(Nc2oc(-c3ccc(Cl)cc3)nc2C#N)cc1	-9.7%	-0.5	?	-2.3	2.7	3.5	5.2%
CC1(C)CC(CC(=O)Nc2nccs2)(c2ccccc2)CCO1 (stereo not given)	-11.6%	1.8	8.6	-2.3	13.2	14.8	-2.2%
CCCCn1c(N)c(N(CCC)C(=O)C2CCCC2)c(=O)[nH]c1=O	.	7.9	0.6	21.4	3.9	12.2	1.2%
O=C(C1CCC1)N1CCN(S(=O)(=O)c2ccccc2)CC1	.	0.5	-71.0	23.2	-7.9	2.1	-2.5%
Cc1ccccc1NC(=O)C(C)c1cccc(C(=O)c2ccccc2)c1 (stereo not given)	11.7%	2.7	4.7	-9.8	7.0	1.3	4.2%[38.3 µM]
CC(Oc1ccc(F)cc1)C(=O)Nc1cc(S(=O)(=O)N2CCCCC2)ccc1N1CCN(C)CC1 (stereo not given)	.	-13.6	-5.8	.	-13.2	-3.6	-1.3%
CCC(Oc1ccccc1)C(=O)Nc1ccc(S(=O)(=O)Nc2cnc3ccccc3n2)cc1 (stereo not given)	23.0%	-17.8	-3.3	13.7	-0.9	-1.7	-0.4%
Cc1ccc(-c2nc(N/N=C/c3cccc([N+](=O)[O-])c3)c3ccccc3n2)cc1	7.8%	-4.0	-1.3	26.4	-8.0	0.2	22.5%[38.3 µM]
CCOc1ccc(NS(=O)(=O)c2ccc(OCC(=O)NCc3ccncc3)cc2)cc1	6.7%	-1.8	-7.0	-8.8	-2.5	0.4	-0.8%
COc1ncc(-c2ccc(N3C(c4ccsc4)=Cc4ccccc4C3CC(C)=O)cc2)cn1 (stereo not given)	.	16.4	.	.	10.0	.	1.4%
CCOc1ccccc1/C=C(/C#N)C(N)=O	5.2%	-20.3	4.9	7.0	.	-3.6	2.6%
CN(C)C(=O)CSc1nnc(Cc2ccc([N+](=O)[O-])cc2)o1	8.3%	4.0	8.3	9.7	3.7	1.5	-0.6%[38.3 µM]
CC1(c2ccccc2)C(C#N)C(=O)NC(=O)C1C#N (stereo not given)	.	3.5	-4.0	.	-0.5	-3.9	0.3%
COC(=O)c1sc(NC(=O)c2ccncc2)nc1C	4.9%	6.3	-4.6	5.8	8.4	5.8	-0.1%
O=C(CN1C(=O)CSc2cc(S(=O)(=O)N3CCCCCC3)ccc21)NCCc1ccccc1	-6.6%	-0.4	-25.8	-1.8	-13.3	-1.0	-0.4%
N#Cc1cccc(NC(=O)COC(=O)C2CCC2)c1	.	9.4	-1.0	-1.8	-2.2	-0.9	3.8%
Cc1nc(N2CCN(C(=O)c3cccs3)CC2)c2c3c(sc2n1)CCCC3	-9.4%	-14.4	-3.2	-7.1	17.3	8.0	1.7%
COC(=O)c1sccc1NC(=O)c1ccoc1C	12.3%	-2.5	-3.4	0.0	3.3	2.6	-1.7%[38.3 µM]
CCOc1ccc(N=C2NC(=O)SC2CC(=O)OC)cc1 (stereo not given)	1.2%	-4.7	-4.7	-11.2	5.7	0.4	0.5%
COc1ccc(C(=O)NC(=S)NCc2cccnc2)cc1OC	1.6%	5.5	3.1	5.3	1.2	10.5	-3.1%
COc1cc(NC(=O)CCc2nnc3ccc(N4CCC5(CC4)OCCO5)nn23)cc(OC)c1	3.6%	-1.3	-11.7	-1.8	-2.7	0.4	-2.0%
C/C(=N\NS(=O)(=O)c1ccccc1)c1cccc(NC(=O)c2cccc(Cl)c2)c1	14.0%	0.5	-28.6	1.1	-4.1	-1.5	1.6%
CC(C)CNS(=O)(=O)c1ccc(CCC(=O)N2CCN(Cc3ccccc3)CC2)cc1	-1.9%	0.4	-5.4	-5.7	-8.5	-2.4	-0.5%
CCOC(=O)C1CCCN(C(=O)c2cc(S(=O)(=O)N3CCCCC3)ccc2C)C1 (stereo not given)	5.2%	4.9	-6.1	18.3	0.2	-1.1	1.4%
CCn1c(-c2nonc2NC(=O)c2ccccc2)nc2ccccc21	7.1%	-1.3	19.3	9.9	21.4	0.0	17.2%[38.3 µM]

Structures shown so far with a halogen (7):
SMILES	Sfp PPTase inh	Six1-Eya2 blk	D2 PAM	TRPV1 potentiator	CtBP-E1A inh	D2 agonist	PINK1 modulator
N#C/C=C(/N)N1CCN(c2ccc(Cl)c(Cl)c2)CC1	-13.9%	-17.0	-33.6	9.8	-4.0	2.5	1.9%
CCN(C(=O)CSc1n[nH]c(-c2cc(Cl)ccc2OC)n1)C1CCS(=O)(=O)C1 (stereo not given)	.	-9.1	-23.3	0.0	-4.6	-4.2	1.8%
Clc1ccc(C2CC(c3cccs3)n3ncnc3N2)cc1 (stereo not given)	9.7%	9.2	-11.6	-8.2	1.5	-1.4	0.0%
CC1(C#N)c2ccccc2C(Br)=CN1C(=O)c1ccccc1 (stereo not given)	.	-0.3	-61.2	5.3	0.0	2.0	4.5%
COc1ccc(Nc2oc(-c3ccc(Cl)cc3)nc2C#N)cc1	-9.7%	-0.5	?	-2.3	2.7	3.5	5.2%
CC(Oc1ccc(F)cc1)C(=O)Nc1cc(S(=O)(=O)N2CCCCC2)ccc1N1CCN(C)CC1 (stereo not given)	.	-13.6	-5.8	.	-13.2	-3.6	-1.3%
C/C(=N\NS(=O)(=O)c1ccccc1)c1cccc(NC(=O)c2cccc(Cl)c2)c1	14.0%	0.5	-28.6	1.1	-4.1	-1.5	1.6%

Source: PubChem

Compounds as they come. About 3.7% of those tested had a hit in this group.
